Source: PubChem BioAssay (National Center for Advancing Translational Sciences (NCATS))
NS1 function inh = blocks influenza NS1 protein function. S. cerevisiae slowed by influenza A NS1, growth recovery by OD600. Potency, µM (top dose mostly 46.1 µM), for the others: at the top dose activity, positive = more growth. hit rate 0.4% among 270,000; active means well fitted rising curve with a large enough effect; inconclusive means small, poorly fitted or top-dose-only effect; inactive means no such curve, though single readings can be large or run the other way; note: nearly all actives have a fitted effect of over 50% in size
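Recovery from NS1-induced slow growth read by OD600 in budding yeast switched to galactose assay medium (pH 6.0, -URA) at 1:100 dilution. Compound 23 nl per well; the matching strain lacking NS1 serves as control.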
Cruzain Triton = inhibitors of Trypanosoma cruzi cruzain with detergent. hit rate 0.43% among 200,000. Potency, µM, for inactives: max response, negative = inhibition, usual class: inhibitors. purified cruzain, Z-FR-AMC fluorescence, 0.01% Triton. P25779;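 note: plate controls were neutral wells for no effect and buffer without enzyme for full effect; nearly all actives have a fitted effect of over 40% in size; top concentration of the series not given in the record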
Target sequence (P25779 123-467 limits assumed): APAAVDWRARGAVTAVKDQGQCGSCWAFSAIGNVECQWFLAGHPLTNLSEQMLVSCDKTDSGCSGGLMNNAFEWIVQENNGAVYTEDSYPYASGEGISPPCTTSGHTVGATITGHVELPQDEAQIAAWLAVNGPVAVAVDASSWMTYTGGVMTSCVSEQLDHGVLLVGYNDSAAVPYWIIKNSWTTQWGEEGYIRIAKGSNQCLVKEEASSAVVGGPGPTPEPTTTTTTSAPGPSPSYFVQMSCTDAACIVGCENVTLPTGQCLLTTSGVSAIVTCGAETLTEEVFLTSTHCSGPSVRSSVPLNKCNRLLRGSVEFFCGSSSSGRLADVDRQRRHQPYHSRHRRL
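Z-FR-AMC hydrolysis (2 uM substrate) by cruzain (1.5 nM) monitored kinetically at ex 360/em 450 nm after 15 min room-temperature compound exposure; 0.01% Triton X-100, pH 5.5, 5 mM DTT.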
RE007 growth inh = less growth of the S. pombe RE007 Vpr strain | Potency, µM (highest dose often 92.2 µM), for the others: top-dose activity change, negative = less growth | S. pombe RE007 Vpr strain, BacTiter-Glo ATP luminescence, 24 h; control for the full effect not named in the record | hit rate 0.21% among 360,000 | AID 651644; active = well fitted falling curve with a large enough effect; inconclusive = small, poorly fitted or top-dose-only effect; inactive = no such curve, though single readings can be large or run the other way;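 note: % is set by controls: 0 for no effect and ±100 for the full control effect; nearly all actives have a fitted effect of over 50% in size; the assay follows cell death caused by Vpr and the record does not say whether a fall means rescue or toxicity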
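Fission yeast strain RE007, carrying one chromosomally integrated HIV-1 vpr copy, was seeded at OD 0.01 in PMG+AL medium with 23 nL pinned compound. After 24 h at 30 °C and 99% humidity, viability was read by BacTiter-Glo luminescence.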
Cruzain noTriton = blocks cruzain activity in detergent-free assay; purified cruzain, Z-FR-AMC fluorescence, no detergent; hit rate 2.3% among 200,000; P25779; Potency, µM, for the others: max response, negative = inhibition, most hits filed as inhibitors;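 note: plate controls were enzyme without inhibitor for no effect and buffer without enzyme for full effect; nearly all actives have a fitted effect of over 40% in size; top concentration of the series not given in the record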
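Detergent-free condition (0.00005% Triton X-100) in acetate buffer pH 5.5 with DTT. 1.5 nM enzyme and compound were pre-mixed 15 min, then 2 uM Z-FR-AMC substrate added; reaction progress from fluorescence change between first and third reads (60 s).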
MARV entry inh = inhibitors of Marburg virus binding or cell entry; hit rate 1.8% among 300,000; Potency, µM (highest dose often 37.8 µM), for inactives: at the top dose activity change, negative = inhibition, hits mostly inhibitors; Marburg virus pseudotyped entry inhibition, cell reporter; control for the full effect not named in the record; about a third of the inactives were read at about 46 µM; AID 540276; active = well fitted inhibition curve with a large enough effect; inconclusive = small, poorly fitted or top-dose-only effect, or effect the other way; inactive = flat fitted curve, though single readings scatter; tested in HEK293 cells; about a fifth of its hits are not listed in these tables; note: % is set by controls: 0 for no effect and ±100 for the full control effect; luciferase read-out
SARS PLP yeast = inhibitors of SARS-CoV papain-like protease in yeast | S. cerevisiae expressing SARS-CoV PLpro, growth rescue; control for the full effect not named in the record | hit rate 0.19% among 330,000 | AID 485353 | Potency, µM (titrated, usually from 32.9 µM), for inactives: at the top dose activity, positive = growth rescue; active means well fitted rising curve with a large enough effect; inconclusive means small, poorly fitted or top-dose-only effect; inactive means no such curve, though single readings can be large or run the other way; note: 0% is about no effect; nearly all actives have a fitted effect of over 55% in size; growth read by luminescence after 48 h
StopGo reporter = lowers the luciferase signal of an FMDV 2A StopGo reporter; human cells with a luciferase reporter of 2A StopGo recoding; control for the full effect not named in the record; Potency, µM (doses to about 57.9 µM), for the others: top-dose signal change, negative = less light; hit rate 1.2% among 410,000; active = well fitted falling curve with a large enough effect; inconclusive = small, poorly fitted or top-dose-only effect; inactive = no such curve, though single readings can be large or run the other way; tested in HEK293T cells; note: % is set by controls: 0 for no effect and ±100 for the full control effect; nearly all actives have a fitted effect of over 45% in size; luciferase light after 4 h
LASV entry inh = blocks Lassa virus binding to or entry into cells | Lassa virus pseudotype entry inhibition, cell reporter; control for the full effect not named in the record | hit rate 1.2% among 300,000 | Potency, µM (titrated, usually from 37.9 µM), for inactives: at the highest dose activity change, negative = inhibition, most hits filed as inhibitors | AID 540256; active means well fitted inhibition curve with a large enough effect; inconclusive means small, poorly fitted or top-dose-only effect, or effect the other way; inactive means flat fitted curve, though single readings scatter; tested in HEK293 cells; note: % is set by controls: 0 for no effect and ±100 for the full control effect; nearly all actives have a fitted effect of over 50% in size; luciferase read-out
An asterisk follows results filed as active; ? = inconclusive; . = not tested or not shown; & = joins results of further samples; [ ] = dose if it differs, or a comment. Unless noted, calls come from the whole dose curve; as a rule, active = well fitted curve in the direction sought with a large enough effect; inconclusive = small, poorly fitted or top-dose-only effect, or another doubt; inactive = no such curve, though single readings can be large; an effect the other way counts as inactive or inconclusive. Potency is the fitted concentration of half-maximal effect.

structure	Cruzain noTriton	MARV entry inh	StopGo reporter	Cruzain Triton	LASV entry inh	SARS PLP yeast	RE007 growth inh	NS1 function inh
Nc1nc(SCC(=O)Nc2ccc(Oc3ccccc3)cc2)n[nH]1	6.2%	-4.7%	?	-6.8%	-0.8%	3.7%	0.0%	?
O=C(Nc1nccs1)c1cc(S(=O)(=O)N2CCOCC2)ccc1Cl	-6.4%	8.0%	-25.1%	2.1%	-0.2%	-9.1%	11.8%	-1.2%
CC1CCN(c2ccc(S(=O)(=O)Nc3cc(C(=O)O)cc(C(=O)O)c3)cc2[N+](=O)[O-])CC1	23.4%	1.1%[46.1 µM]	-6.8%	-3.1%	10.3%	-8.3%	-5.7%	-4.7%
CCC(C)(C)n1nnnc1C(c1ccc(OC)c(OC)c1)N1CCN(c2ccccc2)CC1 (stereo not drawn)	?	-8.8%&-8.8%	-23.8%	3.2%	?	2.5%	2.9%	-7.0%
COCCN(Cc1cc2ccc(C)c(C)c2nc1Cl)C(=O)N1CCOCC1	.	-1.0%[46.1 µM]	-10.4%	.	-6.3%[46.1 µM]	-0.2%	-10.6%	-10.2%
Cc1ccc2c(c1)C1CN(C)CCC1N2S(=O)(=O)c1ccccc1 (stereo not drawn)	-2.0%	?	.	2.8%	17.5%	3.6%	8.5%	1.3%
Cc1cccc(NC(=O)CCn2cnnn2)c1C	0.5%	6.2%[46.1 µM]	2.3%	-0.1%	10.5%[46.1 µM]	.	.	.
CC1(c2ccccc2)CC(C)(C)N(C(=O)C2CCCO2)c2ccccc21 (stereo not drawn)	-2.7%	18.3µM*	.	-1.8%	-7.2%	-40.9%	-1.3%	-95.5%
O=c1[nH]c2ccccc2c(O)c1-[n+]1ccccc1	.	8.8%[46.1 µM]	-17.7%	.	24.6%[46.1 µM]	1.0%	4.9%	-0.6%
C/C(N)=C(/C#N)C(=O)COC(=O)c1cc(-c2ccc(Br)cc2)nc2ccccc12	-27.5%	?	-12.9%&0.0%	-4.8%	?	13.0%	0.6%&16.7%	22.4%
CCCCc1ccc(NC(=S)NCCN2CCOCC2)cc1	.	.	-21.1%	.	.	-0.2%	-4.8%	2.4%
COCCn1c(SCC(=O)N2CCOCC2)nc2c(c1=O)SCC2	.	-2.0%	0.0%	.	0.5%	17.2%	-11.9%	14.6%
CCc1cccc(C)c1NC(=O)C1CCCN(S(=O)(=O)c2cccc3nsnc23)C1 (stereo not drawn)	-1.1%	?	0.0%	-6.1%	2.2%[46.1 µM]	.	.	.
O=C(NCCN1CCN(c2ccccc2F)CC1)C1CC(=O)N(C2CCCC2)C1 (stereo not drawn)	3.1%	-0.6%	.	9.0%	-3.7%	-1.8%	12.5%	-2.6%
O=C(NC(=S)Nc1ccc(S(=O)(=O)Nc2nccs2)cc1)c1ccc(F)cc1	4.0%	7.5%	38.6%[activator]	-9.9%	2.2%	-15.6%	-7.6%	21.0%
CNC(=O)c1ccc(Nc2nnc(-c3ccc(O)cc3)c3ccccc23)cc1	.	.	-23.2%	.	.	3.8%	-2.6%	14.9%
CCOc1ccccc1NC(=O)c1cc(SC)ccc1Cl	.	?	-4.9%	.	-24.5%	-5.6%	?	-4.6%
Cc1noc(/C=C/N(C)C)c1S(=O)(=O)N1CCCC(C(=O)N2CCc3ccccc32)C1 (stereo not drawn)	.	-2.2%	-17.1%	.	.	.	-6.6%	-0.4%
Cc1c(NC(=S)NC(=O)c2ccccc2Cl)c(=O)n(-c2ccccc2)n1C	.	9.5%[46.1 µM]	-9.2%	.	2.5%[46.1 µM]	-1.1%	-0.9%	-3.4%
O=C(CSc1nnc(-c2ccccc2Cl)o1)N1CCCc2ccccc21	2.7%	-8.4%[46.1 µM]	-0.1%	-8.1%	0.8%[46.1 µM]	.	.	.
Cc1c(C(=O)N2CCN(C)CC2)oc2ccc(Br)cc12	.	.	50.8%[activator]	.	.	-1.0%	-9.7%	-13.5%
Cc1ccc2sc(C)[n+](CCO)c2c1	.	3.7%[46.1 µM]	-9.5%	.	16.4%	0.6%	-1.4%	.
O=C(Nc1cc(Cl)cc(Cl)c1)c1ccc2c(c1)N(Cc1cccc(Cl)c1)C(=O)c1ccccc1S2=O (stereo not drawn)	-5.9%	.	-25.6%	0.0%	?	.	.	.
COc1cccc(N2C(=O)CSC23C(=O)N(CC(=O)Nc2cccc(Cl)c2)c2ccccc23)c1 (stereo not drawn)	?	.	0.0%	-7.6%	?	.	.	.
Cc1ccc2c(c1)c1c3n2CCN(C(=O)c2ccc(C(F)(F)F)cc2)C3CCC1 (stereo not drawn)	-14.4%	0.8%[46.1 µM]	-17.8%	1.5%	-3.3%[46.1 µM]	.	.	.
O=C(CCn1c(=O)oc2ccccc21)Nc1ccc(C(=O)O)cc1	.	2.9%[46.1 µM]	9.9%	.	19.9%[46.1 µM]	-0.2%	-7.2%	1.8%
O=C(CCS(=O)(=O)c1nc(-c2cccs2)cc(C(F)(F)F)n1)Nc1ccc(OC(F)(F)F)cc1	?	?	-19.5%	-8.5%	?	.	.	.
Cc1c(Cl)c(C(=O)N2CCCCCC2)nn1C	.	.	5.3%	.	.	-4.1%	-3.5%	13.8%
FC(F)Oc1ccc(NC(=S)NN2CCOCC2)cc1	-5.7%	0.5%	34.1%[activator]	1.6%	5.2%	8.0%	26.8%	13.0%
Nc1nc(SCC(=O)N2CCCCC2)[nH]c(=O)c1NC(=O)c1cccs1	.	-17.8%[46.1 µM]	-2.3%	.	4.4%	-3.9%	15.0%	-35.3%
CCCCN1CC(c2nc3ccccc3n2CCCCOc2ccc(C)c(C)c2)CC1=O (stereo not drawn)	1.1%	-10.9%[46.1 µM]	?	-3.2%	0.5%[46.1 µM]	.	.	.
CCC(=O)Nc1cc(C(=O)O)ccc1S(=O)(=O)c1ccc(C)cc1	0.0%	26.4%	-6.9%	-0.2%	27.7%	13.6%	-10.2%	-4.2%
Cc1cc(C)n2nc(SCCOc3ccc(F)cc3)nc2n1	.	-8.5%[46.1 µM]	14.3%	.	12.8%[46.1 µM]	-2.8%	-6.0%	.
COc1cccc(NC(=O)COC(=O)c2ccc(F)cc2F)c1	-3.3%	-3.8%	-7.7%	-2.5%	22.5%	-26.5%	.	-15.2%
CCOC(=O)COc1cc(OCC(=O)OCC)c2c3c(c(=O)oc2c1)CCCC3	.	16.8%[46.1 µM]	-8.7%	.	9.5%[46.1 µM]	0.8%	2.7%	5.2%
CCn1c(=N)n(CC(=O)c2ccc(Cl)c(Cl)c2)c2ccccc21	.	?	23.9%	.	?	0.7%	4.8%	3.0%
Cc1occc(=O)c1OCc1c(F)cccc1Cl	.	?	1.6%	.	-5.1%	1.5%	10.7%	.
CC1=C(C)C(c2ccccc2)NC(=S)N1 (stereo not drawn)	-8.5%	?	-4.5%	-1.0%	-3.6%	9.6%	21.1%	15.6%
COc1ccc(Cn2c(SCc3ccc(C(=O)NC(C)c4ccccc4)cc3)nc3cccnc32)cc1 (stereo not drawn)	2.4%	2.0%[46.1 µM]	-9.1%	-5.5%	.	.	.	.
O=C1NCCCC1C(=O)N/N=C/c1ccc([N+](=O)[O-])cc1 (stereo not drawn)	.	.	6.2%	.	.	1.6%	25.8%	1.1%
COc1ccc(S(=O)(=O)N2CCOCC2)c(Cl)c1Cl	-8.8%	6.3%	.	-2.4%	-3.9%	-4.1%	-1.6%	5.2%
COc1ccc(Cl)cc1C(=O)Nc1cccc2ncccc12	.	.	-12.7%	.	.	-2.1%	-15.8%	-28.0%
C/C(=N\NC(=O)C(=O)Nc1cccc(Cl)c1C)c1ccncc1	9.5%	?	-19.1%	0.5%	-16.7%	-5.1%	9.9%	5.5%
CCC(C)(C)NC(=O)C(c1ccc(F)cc1)N(Cc1ccco1)C(=O)c1snc(C(N)=O)c1N (stereo not drawn)	-11.3%	0.4%&-1.9%	-25.0%	1.7%	2.2%	-6.8%	-6.8%	-4.6%
COC(=O)CNC(=O)Cn1cnc2sc(C)c(S(=O)(=O)N3CCC(C)CC3)c2c1=O	10.9%	-8.8%&-8.8%[46.1 µM]	6.2%	1.4%	4.3%	10.9%	12.5%	5.9%
O=C(O)c1c(Cl)c(Cl)c(Cl)c(Cl)c1-c1c2cc(I)c(=O)c(I)c-2oc2c(I)c(O)c(I)cc12	-28.2%	46.6%&46.6%	.	12.6µM*	?	.	.	.
C=CCOc1nc2sc(C)c(C)c2c(=O)n1-c1ccccc1	.	.	-2.8%	.	.	-0.1%	5.3%	-6.6%
Cc1ccc(Nc2nnc(-c3ccc(C)c(S(=O)(=O)N4CCN(C)CC4)c3)c3ccccc23)cc1	-4.0%	0.3%[46.1 µM]	-6.4%	-2.3%	-12.4%[46.1 µM]	.	.	.
COc1ccc(C2Nc3ccccc3C(=O)N2NC(C)=O)c(OC)c1 (stereo not drawn)	.	6.6%[46.1 µM]	-3.3%	.	-17.5%[46.1 µM]	-0.4%	4.0%	3.0%
Cc1cc(=O)oc(C)c1C(=O)N1CCN(c2ccc(F)cc2)CC1	-4.1%	16.1%	-16.8%	-0.9%	-4.1%	-1.9%	9.4%	6.9%

(listing goes on)
structure	Cruzain noTriton	MARV entry inh	StopGo reporter	Cruzain Triton	LASV entry inh	SARS PLP yeast	RE007 growth inh	NS1 function inh
COc1cc(C(=O)Nc2sc3c(c2C#N)CCN(C(C)=O)C3)cc(OC)c1OC	?	.	-24.1%	-7.5%	.	9.1%	-6.8%	-3.1%
O=C(CN1CCN(Cc2ccccc2)CC1)Nc1ccc(Cl)cn1	8.5%	-17.8%	10.8%	8.9%	-5.4%	-2.0%	7.8%	-17.7%
CCOc1cc(-c2conc2N)cc(OCC)c1OCC	5.8%	?	-23.9%	0.4%	36.6%[14.3 µM]	15.6%	9.5%	-10.1%
COC(=O)c1cccc(Nc2nc(-c3cccnc3)nc3ccccc23)c1	.	?	?	.	-14.9%[46.1 µM]	-0.9%	2.2%	5.0%
Cc1nc(NCCc2ccccc2)sc1C(=O)O	.	-13.4%[46.1 µM]	45.0%[activator]	.	.	-2.0%	-6.9%	-2.1%

Random draw from the library; about 4.7% have a hit in one of these screens.
